Compound activity as filed in PubChem BioAssay.
D2 ag: human D2 receptor agonism in beta-arrestin assay. P14416. DiscoveRx PathHunter D2 beta-arrestin, luminescence, 90 min; 100% = 57 uM dopamine signal. activation, % (test concentration not listed). 360,000 compounds, 0.084% hits; in the data active = activation above about 40%; inconclusive = about 15% to 40%; inactive = below about 15%; further: compound concentration not given in the record; the text of the record calls up to 30% inactive
Target sequence (P14416 whole entry, looked up): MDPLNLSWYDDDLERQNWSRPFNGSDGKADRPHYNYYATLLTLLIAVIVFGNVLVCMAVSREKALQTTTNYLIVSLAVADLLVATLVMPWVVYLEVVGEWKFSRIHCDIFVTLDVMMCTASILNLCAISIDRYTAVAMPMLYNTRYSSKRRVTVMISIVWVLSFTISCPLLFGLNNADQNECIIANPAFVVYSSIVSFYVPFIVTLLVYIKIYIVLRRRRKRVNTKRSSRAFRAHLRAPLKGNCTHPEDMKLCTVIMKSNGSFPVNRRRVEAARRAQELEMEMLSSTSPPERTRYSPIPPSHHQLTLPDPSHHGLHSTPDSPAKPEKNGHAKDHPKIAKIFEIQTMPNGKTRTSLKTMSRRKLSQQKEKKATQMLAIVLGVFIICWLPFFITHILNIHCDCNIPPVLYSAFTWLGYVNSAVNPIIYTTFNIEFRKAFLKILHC
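DiscoveRx PathHunter D2 beta-arrestin cells (2,100/well) attached overnight, then compound-stimulated 90 min at 37 C in HBSS/10 mM HEPES/0.1% Tween-20 buffer; beta-galactosidase complementation read by luminescence after 1 h at ambient temperature. Dopamine 57 uM final (EC100) as control.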
Six1-Eya2 blk: blocks human Six1 binding to Eya2 | AID 651725 | Q15475+O00167 | AlphaScreen GST-Six1/His-Eya2 binding, biochemical; active compounds read low; control for the full effect not named in the record | 360,000 compounds, 0.56% hits | activity change, % (test concentration not listed); in the data active = activity change below about -65%; inconclusive = about -30% to -65%; inactive = above about -30%; further: on the % scale 0 is the no-effect control and ±100 the full control effect
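AlphaScreen luminescence read after one hour at 37 °C in darkness. Pin-transferred compounds met GST-Six1 and His-Eya2 protein (5X stock 250 nM/500 nM) plus glutathione donor and Ni-chelate acceptor beads (5X, 50 ug/mL).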
PINK1 expr mod: PINK1 expression modulation. 410,000 compounds, 0.2% hits. PINK1 immunofluorescence, high-content cytometry, 24 h. Potency, µM (top dose mostly 76.6 µM), for the others: top-dose activation (PINK1 increase), actives largely listed as activators. AID 624263; active = well fitted activation curve with a large enough effect; inconclusive = small, poorly fitted or top-dose-only effect; inactive = flat fitted curve, though single readings scatter; cell line not stated here;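 further: potency means the concentration at half of the fitted maximal effect; % of control where 0% means no effect; nearly all actives have a fitted effect of over 65% in size; a mitochondrial uncoupler was the plate control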
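Stable cell line treated 24 h with compounds at 5 concentrations (CCCP controls), then fixed and immunostained for PINK1 plus nuclear and cell stains; PINK1 immunofluorescence quantified by laser-scanning microplate cytometry.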
TRPML1 agonist: activates the human TRPML1 channel | AID 624414 | activation, % (no concentration beside the values) | Q9GZU1 | TRPML1-expressing cells, Ca2+ dye fluorescence, FDSS; host cell line not named in the record; reference of the full effect not given here | 410,000 compounds, 0.12% hits; in the data active = activation above about 50%; inconclusive = about 30% to 50%; inactive = below about 30%; further: 0% is about no effect; the text of the record puts the active cut at 80%
Target sequence (Q9GZU1 whole entry, looked up): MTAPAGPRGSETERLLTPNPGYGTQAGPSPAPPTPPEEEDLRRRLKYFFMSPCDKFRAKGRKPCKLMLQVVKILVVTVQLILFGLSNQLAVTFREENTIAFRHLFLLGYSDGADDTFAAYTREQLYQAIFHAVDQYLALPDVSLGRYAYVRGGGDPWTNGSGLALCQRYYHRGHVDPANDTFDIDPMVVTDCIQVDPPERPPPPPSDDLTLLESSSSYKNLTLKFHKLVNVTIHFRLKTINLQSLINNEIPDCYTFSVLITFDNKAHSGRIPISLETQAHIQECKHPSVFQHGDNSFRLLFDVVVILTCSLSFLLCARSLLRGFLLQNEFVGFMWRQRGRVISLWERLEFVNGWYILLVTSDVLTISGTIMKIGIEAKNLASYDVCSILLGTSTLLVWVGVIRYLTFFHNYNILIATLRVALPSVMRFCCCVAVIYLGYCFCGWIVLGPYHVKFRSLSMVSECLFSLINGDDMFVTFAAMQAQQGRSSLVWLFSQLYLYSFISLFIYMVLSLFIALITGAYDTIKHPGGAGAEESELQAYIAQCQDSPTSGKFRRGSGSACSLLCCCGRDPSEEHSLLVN
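Tet-induced TRPML1-DL cells, 1,500 per well, cultured overnight, were loaded with a no-wash Ca2+ dye for 45–90 min. Calcium fluorescence was recorded on the FDSS for 110 s after compound addition, before the EC80 agonist (4 uM 54-4) was added.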
CtBP-E1A blk: inhibitors of CtBP/E1A interaction; AlphaScreen GST-E1A/His-CtBP binding, 1536-well; active compounds read low; control for the full effect not named in the record; activity change, % (no concentration beside the values); 340,000 compounds, 0.49% hits; in the data active means activity change below about -65%; inconclusive means about -30% to -65%; inactive means above about -30%; further: on the % scale 0 is the no-effect control and ±100 the full control effect
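Protein mix (5X: 125 nM each GST-E1A, His-CtBP) was incubated with pinned compound 2 h at 37 deg C in dark, in 50 mM Tris pH 8.0 buffer with 300 mM NaCl. Glutathione donor and nickel acceptor beads followed; AlphaScreen signal read after 1 h.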
D2 PAM: potentiates the human D2 dopamine receptor allosterically. DiscoveRx D2 beta-arrestin cells, luminescence, 90 min; 100% = 57 uM dopamine signal. potentiation, % (no concentration beside the values). P14416. 360,000 compounds, 0.23% hits; active = potentiation of 50% or more; inconclusive = 30% to 50%; inactive = 30% or less;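 further: compound concentration not given in the record; tested on top of an EC20 dose of dopamine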
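PathHunter D2 cells, attached overnight at 37 deg C, received compound in DMSO plus dopamine at EC20 (50 nM final) for 90 min at 37 deg C. Beta-arrestin recruitment was read as luminescence after 1 h with detection reagent at ambient temperature.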
Active calls of the source: *; ? = inconclusive; . = not tested or not shown; & = joins results of further samples; [ ] = another dose, or the depositor's remark.

# | Structure | D2 ag | Six1-Eya2 blk | PINK1 expr mod | TRPML1 agonist | CtBP-E1A blk | D2 PAM
1 | CCOc1ccc(CNC2CCCc3ccccc32)cc1 (stereo not given) | -5.8 | 20 | 6.8% | 0.8 | 7 | -5
2 | CC(C)Oc1ccc(S(=O)(=O)N(C(C)C)C(C)C)cn1 | 0.1 | 14 | 0.5% | 0.8 | 0 | -1
3 | CC1CCN(CCc2nc3cc(NC(=O)NC4CCCCC4)ccc3n2C)CC1 | -1.7 | -1 | -4.2%[38.3 µM] | 0.4 | 7 | -20
4 | CC(=O)c1ccc(OCc2cn(CC(=O)c3ccc(O)cc3)nn2)c(C)c1 | -13 | 0 | 0.5% | -0.3 | 3 | 2
5 | CCOC(=O)C1=C(O)/C(=C/N(C)C)N=C1C | -3.9 | 20 | -0.5% | 0.7 | 0 | -2
6 | COC(=O)c1ccc(-n2cnc(Cl)n2)c(F)c1 | -1.7 | 0 | -0.2% | -0.2 | -20 | 3
7 | COC(=O)c1ccccc1NC(=O)CN1CCN(C23CC4CC(CC(C4)C2)C3)CC1 | -2.8 | -1 | 0.8%[38.3 µM] | 0.1 | 2 | -19
8 | CC(C)COc1ccc(C(=O)NNC(=O)CCC(=O)c2cccs2)cc1 | -1.7 | 3 | 3.6% | -1.2 | . | -8
9 | COc1cccc(NC(=O)CCP(C)(=O)O)c1 | -2.1 | 8 | -0.9% | -1.0 | 2 | 8
10 | CCOC(=O)N1CCN(C(=O)c2ccc(NC(C)=O)cc2)CC1 | 0.1 | 4 | 4.9%[38.3 µM] | -0.6 | 5 | 3
11 | C=CCc1cc(C)ccc1OCCOCCC(C(=O)OCC)C(=O)OCC | -4.6 | 27 | -1.4% | -0.2 | 46 | -3
12 | CCOC(=O)c1ccc(NC(=O)C2(N3C(=O)c4ccccc4C3=O)CCCC2)cc1 | -0.4 | -6 | 1.5% | -0.3 | -5 | -6
13 | Cc1noc(C)c1S(=O)(=O)N(C)C[C@H]1Oc2ccc(NS(=O)(=O)c3ccc(F)cc3)cc2C(=O)N([C@H](C)CO)C[C@@H]1C | 1.9 | -13 | -0.3% | -0.7 | -2 | .
14 | COc1ccc(CC(=O)n2nc(-c3ccccc3)nc2NCc2ccco2)cc1 | -1.6 | 1 | -1.7% | 1.5 | 6 | 4
15 | COc1cccc(/C=C2\SC(=O)N(CCC(=O)NNC(=O)c3ccccc3Cl)C2=O)c1 | -4.6 | 1 | 7.3% | -0.3 | 8 | -6
16 | CC(C)C1C(=O)N(Cc2cn(CCC3OCCO3)nn2)CCS(=O)(=O)N1Cc1ccc(-c2ccncc2)cc1 (stereo not given) | -8.3 | -2 | 10% | -0.4 | 1 | 5
17 | Cc1ccc(C(C)C)cc1S(=O)(=O)Nc1cccnc1 | 3.8 | -2 | 1.9% | 1.0 | 3 | 22
18 | COc1ccccc1N1CCN(C(=O)c2cccc(S(=O)(=O)NCc3cccnc3)c2)CC1 | 6.1 | 4 | 10% | -0.7 | 9 | -3
19 | COc1ccc(N2CCCC2)c(NC(=O)c2ccc([N+](=O)[O-])o2)c1 | 14 | ? | -3.8% | 3.3 | -24 | 29
20 | CCc1nc2cccnc2n1-c1ccc(C(=O)O)cc1 | -2.5 | -3 | -1.3% | 1.1 | -1 | -8
21 | c1ccc(C(c2ccccc2)c2noc(CN3CCN(C4CCCC4)CC3)n2)cc1 | -1.2 | -21 | -0.4% | -1.4 | . | -5
22 | CCN(CC)CCn1c(N)nc2ccccc21 | 1.1 | 1 | 0.3% | -0.7 | 1 | -2
23 | O=C(Nc1ncccc1O)c1ccc(Oc2ccccc2)cc1 | 1.8 | -12 | 1.2% | -1.7 | -4 | 9
24 | Clc1ccc(Cl)c(-c2nn3c(COc4ccccc4)nnc3s2)c1 | -2.4 | 0 | 16%[38.3 µM] | -0.3 | 5 | -17
25 | O=C(Nc1ccccc1)OCCc1ccccc1 | 2.6 | 21 | 1.6% | -0.7 | -10 | -2
26 | CCCCN(C)CCCNC(=O)c1cccc(N2CCCC2=O)c1 | -4.6 | -1 | -2.2% | -0.3 | -3 | -25
27 | CCOc1ccc(NC(=O)c2ccncc2)cc1 | -0.9 | 4 | -1.0% | 0.1 | 7 | -2
28 | CCN(CC)S(=O)(=O)c1ccc2c(c1)NC(=O)C1CCCN21 (stereo not given) | -13 | -3 | 1.5% | -0.3 | 2 | -23
29 | NS(=O)(=O)c1ccc(NC(=S)Nc2ccc(OCc3ccccc3)cc2)cc1 | 3.6 | 1 | -2.5% | 1.0 | 0 | 0
30 | COc1ccccc1-n1nnnc1SCC(=O)N(CC(C)C)C1CCS(=O)(=O)C1 (stereo not given) | -4.0 | 3 | -3.0% | 0.1 | 13 | 19
31 | CC1C(=O)Nc2ccccc2N1C(=O)C1CC1 (stereo not given) | 0.7 | -3 | -1.5% | -0.9 | 6 | 13
32 | Cc1cccc(NC(=O)CCC(=O)N/N=C/c2ccco2)c1C | -1.3 | 4 | 2.5% | 0.0 | 12 | -8
33 | Cc1cccc(-c2noc(Cc3ccccc3)n2)c1 | 1.2 | 65 | . | -0.5 | 51 | -5
34 | Cc1cc(C)n(CC(=O)NC2CCCN(Cc3ccc(Cl)cc3)C2)n1 (stereo not given) | 0.3 | 18 | 0.7% | -0.3 | 0 | -19
35 | O=C(CCSc1ccccc1)Nc1nc2c(s1)CCCC2 | -1.1 | -2 | 4.5%[38.3 µM] | 0.7 | -8 | -8
36 | CC1(C(=O)NCc2ccc(Cl)cc2)CCN1C(=O)Cc1ccc(Cl)cc1Cl (stereo not given) | 5.8 | 4 | 1.2% | -0.5 | 3 | 6
37 | Cc1cccc(NC(=S)N2CCN(c3cc(C)ccc3C)CC2)c1 | -0.8 | -7 | -1.9% | 0.2 | 1 | -3
38 | CC(C)NC1(C#N)CCN(Cc2ccccc2)CC1 | 0.1 | -8 | 4.1% | 1.2 | 7 | -3
39 | COc1cc(OC)cc(C(=O)N2CCN(Cc3ccccc3[N+](=O)[O-])CC2)c1 | -3.8 | 0 | -0.9% | -0.3 | . | -2
40 | O=C(Cc1cccc2ccccc12)Nc1ccc(-c2cc3ccccc3oc2=O)cc1 | -1.6 | 9 | 2.8% | 0.6 | 4 | -9
41 | C=CC(=O)N1C/C=C\C(c2ccc(OC)cc2)N(Cc2ccc(F)cc2)C(=O)C1 (stereo not given) | -2.6 | -17 | 3.3% | 0.6&-0.3 | 4 | -10
42 | O=C1CN(CC(=O)N2CCCCC2)c2ccccc2O1 | 8.4 | -13 | -2.7% | -0.5 | -11 | 28
43 | C[C@H](CO)N1C[C@H](C)[C@H](CN(C)C(=O)c2ccccc2)OCc2cnnn2CCCC1=O | -3.2 | -1 | -1.5% | -0.2 | 4 | 1
44 | CCN(CC)CCn1cnc2c1c(=O)[nH]c(=O)n2Cc1ccccc1 | -2.8 | 8 | 1.1% | 1.0 | . | -9
45 | CCOc1ccc(OCCSc2nc3ccccc3o2)cc1 | -3.3 | 48 | 2.5% | 1.1 | 55 | 10
46 | COc1ccc(Cl)cc1C(=O)OCC(=O)c1ccc[nH]1 | 1.9 | 3 | 1.2% | 2.2 | -12 | -1
47 | CC(C(=O)NCC1CCCO1)N(C(=O)c1snc(C(N)=O)c1N)c1ccccc1 (stereo not given) | -0.2 | 5 | -3.2% | 0.8 | 3 | 6
48 | CC(NC(=O)c1cccs1)C(S)c1ccccc1 (stereo not given) | -2.6 | -4 | -0.5% | -0.7 | 10 | -6

Single records, as listed above.
`COc1cccc(/C=C2\SC(=O)N(CCC(=O)NNC(=O)c3ccccc3Cl)C2=O)c1` as listed: D2 ag = -4.6; Six1-Eya2 blk = 1; PINK1 expr mod = 7.3%; TRPML1 agonist = -0.3; CtBP-E1A blk = 8; D2 PAM = -6
`Cc1cccc(NC(=O)CCC(=O)N/N=C/c2ccco2)c1C` as listed: D2 ag = -1.3; Six1-Eya2 blk = 4; PINK1 expr mod = 2.5%; TRPML1 agonist = 0.0; CtBP-E1A blk = 12; D2 PAM = -8

Later entries
# | Structure | D2 ag | Six1-Eya2 blk | PINK1 expr mod | TRPML1 agonist | CtBP-E1A blk | D2 PAM
49 | COc1ccc(N(C(=O)c2cccnc2)S(=O)(=O)c2ccc3c4c(cccc24)C(=O)N3C)cc1 | -0.7 | -9 | 1.8% | 0.6 | -6 | 18
50 | Cc1c(NC(=O)c2cnc(Cl)c(Cl)c2)c(=O)n(-c2ccccc2)n1C | -2.4 | 5 | 2.2% | 1.3 | 7 | -4
51 | CC1C(=O)Nc2ccccc2N1C(=O)c1ccc(F)cc1F (stereo not given) | -3.5 | 2 | 1.3% | 0.3 | -16 | -17
52 | COc1ccc2c(c1)OC(O)(C(F)(F)F)CC2=O (stereo not given) | -0.3 | 0 | ? | 0.8 | 6 | -5
53 | Cc1ccc(C)c(CC(=O)N2CCCC(c3cc(C(=O)Nc4ccccc4Cl)no3)C2)c1 (stereo not given) | -4.3 | 1 | 0.3% | 0.4 | -14 | -9
54 | COc1ccc(CCn2c(=N)c(C(=O)NCC3CCCO3)cc3c(=O)n4ccccc4nc32)cc1OC (stereo not given) | -3.8 | ? | 1.3% | -0.3 | ? | -1
55 | Cc1ccc(-c2n[nH]c(=O)c3ccccc23)cc1S(N)(=O)=O | -2.3 | 20 | 2.6% | 0.2 | 13 | -5
56 | Cc1c(C(=O)N/N=C/c2cccs2)nc2ccccn12 | 3.6 | -10 | -1.0% | 1.6 | -6 | -1
57 | CCCC(=O)NC(c1ccco1)c1c(O)ccc2ccccc12 (stereo not given) | -4.8 | -6 | 4.7%[38.3 µM] | 3.4 | -9 | 0
58 | CC(=O)Nc1cc(-c2nn3c(C)nnc3s2)ccc1C | -2.6 | -1 | 0.9% | 0.2 | 4 | -2
59 | CC12CCC(C(=O)Nc3ccncc3)(CC1O)C2(C)C (stereo not given) | -4.5 | 4 | 0.4% | 1.0 | -1 | -8
60 | CC(C)OC(=O)CC1C(=O)NCCN1C(=S)NC(=O)c1ccccc1 (stereo not given) | -5.6 | -3 | 3.7% | 0.5 | . | -6
61 | CC(c1ccccc1)N1C(=O)C2C3CCC(C3)C2C1=O (stereo not given) | -0.7 | 11 | -0.3% | 1.9 | 2 | -2
62 | CC1CCCC(C)N1C(=O)COC(=O)CNC(=O)c1sc2ccccc2c1Cl (stereo not given) | -3.5 | -2 | 2.3% | 0.4 | 6 | -24
63 | O=[N+]([O-])c1ccc(Cc2ccccn2)cc1 | 4.4 | -1 | 0.2% | 2.5 | 1 | 1
64 | COC(=O)c1ccc(/C=N/NC(=O)CNc2cccc(C)c2)cc1 | 0.8 | -5 | -0.8% | 0.0 | 22 | -8
65 | CC(=O)N1c2ccc(S(=O)(=O)N3CCC(C(=O)NC4CCCCC4)CC3)cc2CC1C (stereo not given) | -2.8 | 1 | 1.8% | -0.6 | -2 | -11
66 | Nc1ccc(Sc2ccc([N+](=O)[O-])cc2)cc1 | -2.3 | -6 | 2.5% | -0.2 | 0 | -6
67 | Cc1nn(-c2ccc([N+](=O)[O-])cc2)c(N)c1-c1ccccc1 | -3.0 | -16 | 0.5% | -0.7 | -4 | -22
